# Screening data: PubChem, several laboratories
# Arbovirus inh = antivirals against arbovirus infection. arbovirus infection cell-based antiviral screen. inhibition, % at 10 µM. 200,000 tested, 0.37% active;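 active = inhibition from about 30%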;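 note: bluetongue infection of BSR cells; cell survival read as ATP light after 72 h; 0% = infected wells without compound and 100% = uninfected wells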
# Mtb bLac sens = beta-lactam sensitization of Mtb H37Rv | M. tuberculosis H37Rv growth with meropenem, percent inhibition; hits of this screen are not shown here | inhibition, % at 25 µM | 330,000 tested, 0.27% active;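 active = about 74% or more and at least 40 points above the plate without the antibiotic, then above 30% in a dose series; inconclusive = first-round hits that could not be retested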;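 note: growth measured after seven days incubation then overnight dye step; 0% = bacteria only wells and 100% = bacteria with antibiotic; twin plates without the antibiotic show which effects depend on it; some results filed as inactive read as strong as hits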
# Mtb growth = M. tuberculosis H37Rv growth inhibitors, H37Rv strain (AID 1626); M. tuberculosis H37Rv growth inhibition; higher % means a stronger effect; inhibition, % at 10 µM; hits with a dose series show IC50 in µM; 220,000 tested, 0.95% active;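 active = confirmed in a dose series; inconclusive = inhibition above 80% but not taken into the dose series; inactive = below 80% or under 30% at every dose of the series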;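 note: bacteria incubated seven days before Alamar blue readout; 0% = bacteria only wells and 100% = bacteria with antibiotic wells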
# YopH PTP inh = YopH (Yersinia) phosphatase inhibition. 140,000 tested, 0.16% active. fluorescence Ex485/Em525. inhibition, %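 (about 10 µM by stock and volumes)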;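 active = inhibition of 50% or more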;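 note: controls were vehicle for no effect and minimum signal wells for full effect; inactives centre near -20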
# RecA intein inh = inhibitors of M. tuberculosis RecA intein splicing | cell-free RecA intein splicing, fluorescence | inhibition, %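 (about 9 µM by stock and volumes)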 | 290,000 tested, 0.75% active; in the data active = inhibition above about 30%; inconclusive = no clear call, values can overlap the other calls;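 note: 0% = vehicle wells and 100% = reference inhibitor control wells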
# Target sequence (P9WHJ3 whole entry, looked up): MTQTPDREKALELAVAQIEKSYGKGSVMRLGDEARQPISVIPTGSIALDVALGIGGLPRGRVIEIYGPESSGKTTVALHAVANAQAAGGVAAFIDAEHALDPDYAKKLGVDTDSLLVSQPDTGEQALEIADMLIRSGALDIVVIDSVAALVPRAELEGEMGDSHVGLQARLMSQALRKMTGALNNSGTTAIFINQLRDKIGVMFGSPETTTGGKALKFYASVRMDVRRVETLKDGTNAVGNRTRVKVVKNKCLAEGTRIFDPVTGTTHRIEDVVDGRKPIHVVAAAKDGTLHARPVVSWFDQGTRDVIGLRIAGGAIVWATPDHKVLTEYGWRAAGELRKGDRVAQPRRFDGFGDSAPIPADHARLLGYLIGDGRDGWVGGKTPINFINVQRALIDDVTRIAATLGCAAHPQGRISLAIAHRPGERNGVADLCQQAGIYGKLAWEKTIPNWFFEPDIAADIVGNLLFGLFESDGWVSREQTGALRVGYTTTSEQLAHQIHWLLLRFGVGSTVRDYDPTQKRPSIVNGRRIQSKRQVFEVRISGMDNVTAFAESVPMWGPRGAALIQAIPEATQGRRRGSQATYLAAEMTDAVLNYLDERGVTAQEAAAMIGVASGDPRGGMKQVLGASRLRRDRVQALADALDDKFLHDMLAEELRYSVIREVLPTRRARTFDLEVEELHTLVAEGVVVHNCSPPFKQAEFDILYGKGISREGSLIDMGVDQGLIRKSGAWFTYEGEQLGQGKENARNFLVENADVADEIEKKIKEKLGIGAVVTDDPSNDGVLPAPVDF
# Arbovirus inh repeat = further read-out of Arbovirus inh, marked with its call; inhibition, %; measured here: 10K subset replicate screen; many hits read low in the repeat;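 first of two repeat runs on a subset; 0% = infected and 100% = uninfected wells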
# Active calls of the source: *; u = inconclusive; x = no result given; & = joins results of further samples.
SMILES,Arbovirus inh,Mtb bLac sens,Mtb growth,YopH PTP inh,RecA intein inh,others
COc1cc(/C=N/Nc2nc(Nc3ccc(C)cc3)nc(-n3nc(C)cc3C)n2)cc(OC)c1OC,-18,74,7%,7,-0.3,
CCOc1ccc(-c2csc3nc[nH]c(=O)c23)cc1,x,6,x,x,0.1,
CCOC(=O)c1cc(-c2ccccc2)nc2c1c(C)nn2-c1ccccn1,-9,96,42%,-5,2.3,
Cc1c(CN2CCC(C(=O)Nc3cccc(-c4cccc(Cl)c4)c3)CC2)cnn1C,x,1,x,x,2.2,
COc1ccc(NC(=O)c2sc3cc(C(F)(F)F)cnc3c2-c2cccs2)cc1,2,36,12%,8,-2.2,
COc1ccc(OC)c(NC(=O)CC(Cc2ccccc2OC)C(=O)O)c1 (configuration not stated),5,1,0%,-12,-0.7,
CCOc1ccc(C2/C(=C(\O)c3c(C)[nH]c(C(=O)OC)c3C)C(=O)C(=O)N2CCN(C)C)cc1 (configuration not stated),0,-4,3%,-13,-10,
COC(=O)c1c(C)n(-c2ccc(OC)cc2)c2ccc(O)cc12,1,8,4%,-16,-1.4,
Cc1ccnc(NC(=O)CNC(=O)c2ccccc2)c1,x,-13,x,x,-0.9,
Cc1cccc2cc(COC(=O)C(C)C)c(=O)[nH]c12,7,-11,6%,-25,1.1,
Cc1cc(C)n(/N=C/c2ccccc2O)c(=O)c1,6,4,-5%,x,-4.7,
COc1ccc(-c2nnn(CC(=O)N(Cc3cccs3)C(C)C(=O)NCCC(C)C)n2)cc1OC (configuration not stated),-12,-14,7%,17,4.1,
Cc1ccc2nsnc2c1S(=O)(=O)N1CCN(CCc2ccccc2)CC1,-5,-23,4%,-18,5.6,
O=S(=O)(N1CCCCCC1)N1CCNCC1,x,-5,x,x,2.9,
Cc1ccc(-n2c(C)cc(/C=N/NC(=O)c3ccncc3)c2C)cc1,2,99,u,-10,-2.6,
Cc1cnc(C(=O)OCC(=O)NC(C)C)cn1,2,-1,5%,3,-0.7,
O=C(NCc1ccccc1)c1ccc(C2SCC(=O)N2Cc2ccccc2)cc1 (configuration not stated),-6,0,5%,-27,1.5,
CC(=O)N1N=C(c2ccc(C)cc2)CC1c1ccc2c(c1)OCO2 (configuration not stated),x,4,-3%,x,0.5,
CCC/C=C(\CCC)C(NC(=O)OCC(C)C)c1ccc(C(=O)OC)cc1 (configuration not stated),-2,-4,0%,-7,7.9,
COc1ccc(Cl)cc1-c1nc(SCC(=O)NC2CC2)n[nH]1,8,6,3%,x,0.9,
COc1cccc(N2C(=O)CC(NNC(=O)c3cccs3)C2=O)c1 (configuration not stated),5,0,-3%,-37,-0.5,
CC1Sc2ccc(S(=O)(=O)CCC(=O)NC3CCCCC3C)cc2NC1=O (configuration not stated),x,-7,x,x,1.2,
Cc1nc(SCC(=O)N2CC(C)OC(C)C2)nc(C)c1C (configuration not stated),-5,0,-2%,8,-0.2,
O=C(Nc1ccccc1)N1CCC(C(=O)N(Cc2ccco2)Cc2cccs2)CC1,-3,0,-6%,-44,2.6,
Cn1cccc1C(=O)NC(=O)COC(=O)c1ccccc1O,3,-6,-7%,-29,-0.4,
Cc1cc(N2C(=O)C(=O)/C(=C(/O)c3ccc(F)cc3)C2c2ccc(Cl)cc2)no1 (configuration not stated),5,-3,2%,-27,-1.8,
Cc1nnc(NC(=O)c2ccc(-c3cccc(C(F)(F)F)c3)o2)s1,-11,4,8%,12,x,
COc1ccc(C(=O)C[n+]2cc(-c3ccc(OC)cc3)n3c2CCCC3)cc1,2&2,11&22,-1%&-5%,x,-0.6,
Clc1ccc(-n2ncc3c(NCc4ccco4)ncnc32)cc1,-15,-4,4%,-28,2.1,
COC(=O)C1=C(N)n2c(s/c(=C\c3cccnc3)c2=O)=C(C(=O)OC)C1c1cccnc1 (configuration not stated),2,x,-9%,-1,-0.4,
CCOc1ccc(CN2CCNC(=O)C2CC(=O)NCCCC2CCCC2)cc1 (configuration not stated),x,-1,x,x,0.9,
CCN(CC)c1ncc(C)c(=O)[nH]1,3,1,0%,-17,-0.4,
COc1ccc(C(C(=O)NCC2CCCO2)N(C(=O)CNC(=O)c2ccco2)c2ccc(C)c(C)c2)cc1OC (configuration not stated),x,-3,x,x,5.4,
N#Cc1c(NC(=O)CSC2=NCCS2)sc2c1CCCC2,-8,-4,3%,5,-1.5,
C=C(C)CSc1nc(N)c2c3c(sc2n1)CCC3,0,5,5%,-33,-1.0,
O=C(CCn1c(=O)oc2ccccc21)N1CCC2(CC1)OCCO2,-5,-4,-6%,-23,-0.1,
CCC1(c2ccccc2)NC(=O)N(CC(=O)Nc2ccccc2C(=O)NC2CC2)C1=O (configuration not stated),x,2,x,x,-1.9,
Cc1cc(NC(=O)CS(=O)(=O)c2cn(Cc3ccc(F)cc3)c3ccccc23)no1,3,4,6%,7,1.5,
O=C(Nc1ccccc1)C(=O)c1c[nH]c2ccccc12,x,0,x,x,1.4,
Cc1cc(C)cc(NC(=O)c2cc(C)nc3ccccc23)c1,x,-19,x,x,0.9,
COc1ccc(C(=O)N/C(=C\c2cn(C)c3ccccc23)C(=O)OCCN(C)C)cc1,x,-2,-12%,x,-4.1,
CCOC(=O)/C=C1\SCC(=O)N1CC(=O)Nc1cccc(F)c1,-2,5,-17%,x,0.8,
CCOc1ccc2nc(NC(=S)NCc3ccccc3)sc2c1,-8,89,u,14,-0.3,
Nc1nonc1-n1nnc(C(=O)N/N=C/c2cccc(F)c2)c1CN1CCCC1,x,-5,x,x,1.1,
CCOC(=O)c1c(C)n(C)c2ccc(OCC(O)CN(CC)CC)cc12 (configuration not stated),1,-6,4%,-38,-0.7,Arbovirus inh repeat=-7
COCc1cc(C)nc(SCc2nc3ccccc3c(=O)[nH]2)c1C#N,-13,-5,-3%,x,-6.0,
O=C(NC1=NCCS1)c1ccc2c(c1)C(=O)N(Cc1ccco1)C2=O,2,x,-5%,-9,1.3,
Cc1cc(O)c(C(C)C)cc1N=Cc1ccccc1O,x,0,-3%,x,51*,
Cc1cccc(OCC(=O)NC2CCCC2)c1,x,3,x,x,8.3,
Cc1ccc(-c2nc3ccccc3s2)cc1NC(=O)c1cc(-n2cnnc2)ccc1Cl,-14,3,-10%,4,-4.8,
# Additional records
SMILES,Arbovirus inh,Mtb bLac sens,Mtb growth,YopH PTP inh,RecA intein inh,others
CCc1ccc(N2CC(C(=O)Nc3ccc(F)cc3)CC2=O)cc1 (configuration not stated),x,-4,x,x,7.2,
Cc1ccccc1CN(c1ccc(C(=O)N2CCCC2)cc1)S(C)(=O)=O,1,7,-4%,-16,0.6,
Cc1cc(Nc2ccccc2)n2nc(C)c(-c3ccccc3)c2n1,x,-5,4%,x,-12,
O=C(NCCCN1CCOCC1)c1cc2cc(Br)ccc2oc1=O,9,-7,-8%,-38,1.6,
O=C(/C=C/C=C/c1ccccc1)c1ccco1,x,-6,-2%,x,12,
CCOc1ccc(-c2nnc(SCC(=O)N3CCCC3)o2)cc1,x,4,x,x,-0.8,
OCCC1CN(Cc2ccc3nsnc3c2)CCN1C1CCCC1 (configuration not stated),-4,8,-1%,x,-0.4,
CC(=O)Nc1ccc(S(=O)(=O)NCc2ccc(C(=O)NCc3ccc4c(c3)OCO4)cc2)cc1,-1,-10,-6%,-24,-1.4,
CCOC(=O)C1CCN(S(=O)(=O)CCNC(=O)c2cccc(OC)c2)CC1,x,-2,x,x,0.1,
CSCc1nc2sc(C(=O)Nc3nc(C)cs3)c(C)c2c(=O)[nH]1,6,57,18%,x,0.5,
N/C(=N\O)c1cccc(CS(=O)(=O)c2ccccn2)c1,x,-3,4%,x,-1.4,
Cc1ccc(/C=C/C(=O)Nc2ccc(O)c3c(=O)cc(-c4ccccc4Cl)oc23)cc1,x,-15,-4%,x,-6.2,
O=C(CSc1nccn1-c1ccc(F)cc1)NCc1ccc2c(c1)OCO2,-2,-3,-20%,-31,1.7,
Cc1cc(Nc2cccc(Cl)c2)nc(N2CCOCC2)n1,-8,-5,9%,-28,4.2,
COc1ccc(Cn2c(O)c(/C=N/NC(=O)c3ccncc3)c(=O)[nH]c2=O)cc1,x,100,u,x,4.8,
CCn1c(SCC(=O)N2CCCc3ccccc32)nc2ccccc2c1=O,3,2,2%,-48,1.6,
COc1ccc(-c2noc(-c3ccoc3C)n2)cc1OC,8,14,8%,x,3.0,
CCN(CC)C(=O)COc1coc(CN2CCN(Cc3ccccc3)CC2)cc1=O,x,4,x,x,-0.4,
C=CCNC(=O)CSc1nc2sccc2c(=O)n1-c1ccccc1,x,-12,x,x,-0.9,
CC(=O)Nc1cccc(-c2nc3ccc(NC(C)=O)cc3[nH]2)c1,8,-11,-7%,-15,-0.4,

# Sorted by molecular weight (smallest number first): part of the list above.
SMILES,Arbovirus inh,Mtb bLac sens,Mtb growth,YopH PTP inh,RecA intein inh,others
O=C(/C=C/C=C/c1ccccc1)c1ccco1,x,-6,-2%,x,12,
COc1ccc(-c2noc(-c3ccoc3C)n2)cc1OC,8,14,8%,x,3.0,
N/C(=N\O)c1cccc(CS(=O)(=O)c2ccccn2)c1,x,-3,4%,x,-1.4,
Cc1cc(Nc2cccc(Cl)c2)nc(N2CCOCC2)n1,-8,-5,9%,-28,4.2,
CC(=O)Nc1cccc(-c2nc3ccc(NC(C)=O)cc3[nH]2)c1,8,-11,-7%,-15,-0.4,
CCOc1ccc(-c2nnc(SCC(=O)N3CCCC3)o2)cc1,x,4,x,x,-0.8,
OCCC1CN(Cc2ccc3nsnc3c2)CCN1C1CCCC1 (configuration not stated),-4,8,-1%,x,-0.4,
C=CCNC(=O)CSc1nc2sccc2c(=O)n1-c1ccccc1,x,-12,x,x,-0.9,
CSCc1nc2sc(C(=O)Nc3nc(C)cs3)c(C)c2c(=O)[nH]1,6,57,18%,x,0.5,
CCn1c(SCC(=O)N2CCCc3ccccc32)nc2ccccc2c1=O,3,2,2%,-48,1.6,
O=C(CSc1nccn1-c1ccc(F)cc1)NCc1ccc2c(c1)OCO2,-2,-3,-20%,-31,1.7,
O=C(NCCCN1CCOCC1)c1cc2cc(Br)ccc2oc1=O,9,-7,-8%,-38,1.6,
CCOC(=O)C1CCN(S(=O)(=O)CCNC(=O)c2cccc(OC)c2)CC1,x,-2,x,x,0.1,
CCN(CC)C(=O)COc1coc(CN2CCN(Cc3ccccc3)CC2)cc1=O,x,4,x,x,-0.4,
Cc1ccc(/C=C/C(=O)Nc2ccc(O)c3c(=O)cc(-c4ccccc4Cl)oc23)cc1,x,-15,-4%,x,-6.2,
CC(=O)Nc1ccc(S(=O)(=O)NCc2ccc(C(=O)NCc3ccc4c(c3)OCO4)cc2)cc1,-1,-10,-6%,-24,-1.4,

# (cont.)
SMILES,Arbovirus inh,Mtb bLac sens,Mtb growth,YopH PTP inh,RecA intein inh,others
COc1ccc(C(=O)C2CCCN(C(=O)c3ccnn3C)C2)cc1OC (configuration not stated),x,-10,x,x,-0.1,
COc1ccc(N2C(=O)C(OC(C)=O)C2c2ccc(C)cc2)cc1 (configuration not stated),3,-1,16%,-15,2.5,
Cc1cc(C)n(-c2nc3ccccc3n3c(C)nnc23)n1,6,-11,-1%,x,x,
COc1ccc(C2CC(=O)N3CN(c4ccccc4F)CSC3=C2C#N)cc1OC (configuration not stated),4,-7,4%,-38,1.0,Arbovirus inh repeat=0
CCOC(=O)c1nnn(-c2nonc2N)c1-c1ccc(OCC)cc1,5,-8,-4%,-23,-1.7,
O=C(CCNC(=O)C1CCN(S(=O)(=O)c2ccc(F)cc2)CC1)NCCc1ccc(Cl)cc1,x,-7,x,x,-4.1,
Cc1ccc(-c2noc(-c3ccoc3C)n2)cc1,-3,-3,-1%,x,-1.4,
Cc1[nH]n(-c2ccc([N+](=O)[O-])cc2)c(=O)c1C=NCCN1CCN(C(=O)c2ccc(F)cc2)CC1,-5,8,x,-11,2.5,
Clc1ccc(Cn2ncc3c(NCc4ccccc4)ncnc32)cc1,7,13,16%,-19,10,
N#Cc1ccccc1NS(=O)(=O)c1cc2c3c(c1)CCN3C(=O)CC2,x,0,x,x,-1.1,
COCC(=O)n1nc(-c2ccccc2)nc1NCc1cccs1,-3,x,-7%,x,x,
O=C(Nc1ccccc1F)c1ccn[nH]1,4,-6,-4%,x,-0.5,
O=C(C1CC(c2ccccc2O)=NO1)N1CCCCC1 (configuration not stated),2,-8,-3%,-39,-0.8,
C=CCN(Cc1ccco1)S(=O)(=O)c1ccc(Cl)cc1,x,-6,x,x,-2.2,
Cc1ccc(S(=O)(=O)CCN2CCC(n3cccc3)CC2)cc1,x,-16,-3%,x,-1.5,
O=C(Nc1ccc(F)cc1F)N1CCCN(c2ccc(C(F)(F)F)cn2)CC1,x,-2,10%,x,-4.5,

# Not all compounds are listed (hit frequency here may not be typical).
